Sfp PPTase inh: blocks B. subtilis Sfp PPTase activity; 310,000 tested, 3.5% active; Potency, µM, for the others: max response, negative = inhibition, most hits filed as inhibitors; AID 1490; Q9F4F7; Biochemical Sfp PPTase activity, qHTS; active means well fitted inhibition curve with a large enough effect; inconclusive means small, poorly fitted or top-dose-only effect, or another doubt; inactive means no such curve, though single readings can be large or run the other way;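 further: the enzyme is Sfp with the accession as filed and its product quenches rhodamine fluorescence; potency means the concentration at half of the fitted maximal effect; 0% = enzyme reaction without inhibitor and -100% = no enzyme wells; top concentration of the series not given in the record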
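Compounds were incubated with enzyme (final 15 nM) for 15 min at room temperature before substrate addition started the reaction. Fluorescence at 525 nm excitation, 598 nm emission was recorded immediately and after 30 minutes.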
Menin MLL FP FL: menin-MLL binding inhibition, fluorescein peptide; Fluorescence polarization, fluorescein-MLL peptide displacement from menin; FP activity change, % at 61.4 µM; 290,000 tested, under 10 active; AID 1766; inconclusive = falling polarisation curve, or a change in total fluorescence; inactive = total fluorescence flat and polarisation flat or rising; no compound was filed as active; the % refers to the polarisation; negative = inhibition;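 further: % of control where 0% means no effect; inhibitors lower the polarisation; unlabelled MLL peptide was the positive control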
* marks the source's active call; other numbers are inactive results; ? = inconclusive; & = joins results of further samples; [ ] = dose if it differs, or a comment.

Compound | Sfp PPTase inh | Menin MLL FP FL
C[C@@H](COc1ccccc1)N(CCCl)Cc1ccccc1 | 13.7% | 2.0[24.8 µM]
C[C@@H](CC(=O)O)[C@@H](N)C(=O)O | -21.4%&6.6% | 1.8
O[C@H](c1cc(C(F)(F)F)nc2c(C(F)(F)F)cccc12)[C@H]1CCCCN1 | -22.5% | -3.1[24.8 µM]
O=c1c(-c2ccccc2)nc2cnc(N3CCNCC3)nc2n1C1CC1 | 11.5% | 0.1
Cc1cnc(CNc2nc(-c3ccc(N(C)C)cc3)nc3ccccc23)cn1 | -20.2% | -2.6
C[C@](N)(COP(=O)(O)O)C(=O)O | -30.1% | -6.3
CC(CC(O)C1OC1(C)C)C1CCC2(C)C3=CCC4C(C)(C)C(=O)CCC4(C)C3CC[C@@]12C (stereo partly drawn) | -21.3% | 1.5
C=C1NC(=O)c2cc(CN(C)c3ccc(C(=O)N[C@@H](CCC(=O)O)C(=O)O)s3)ccc2N1 | -2.0% | -3.1
COC(=O)c1ccc(C(NC(=O)OCc2ccccc2)/C(=C/[C@@H](C)C(=O)N(C)Cc2cccnc2)c2cccnc2)cc1 (stereo partly drawn) | 11.3% | 0.2
COC(=O)C1=C(C)N(Cc2ccccc2)[C@]23O[C@](C(=O)OC)(C(=O)N2C1c1ccccc1)C1C(=O)N(C)C(=O)C13 (stereo partly drawn) | 26.2%&16.0% | -1.6&0.5[11.7 µM]
CC(=O)OCC(=O)[C@]1(O)C(OC(C)=O)CC2C3CCC4=CC(=O)C=C[C@@]4(C)[C@]3(F)C(O)C[C@]21C (stereo partly drawn) | -1.4% | 1.1
NC(=O)N/N=C/c1ccc(Oc2ccc(F)cc2)cc1 | 11.1% | 0.9
O=c1c(-c2ccc(Cl)cc2)nc2cncnc2n1Cc1ccccc1 | 3.2% | 2.0
CO/N=C(\C)CCN1CCc2nc(-c3ccccc3)c(-c3ccccc3)cc2C1 | 2.5% | 0.4[11.7 µM]
CCCCCCC#CC1C=CC(OC(C)=O)C(COC(C)=O)O1 (stereo not drawn) | ? | -1.6[11.7 µM]
CN(C)c1ccc(-c2nc(Nc3ccncc3)c3ccccc3n2)cc1 | ? | 16.0
COc1cccc(Nc2ncc3nc(CCc4ccccc4)c(=O)n(CCC#N)c3n2)c1 | 3.6% | ?
CC(C)(C)c1ccc(OC2C(O)COC2/C=C/C#Cc2ccccc2)cc1 (stereo not drawn) | 12.6%&9.0% | 5.9&-6.1[11.7 µM]
CC(C)c1cc(C(C)C)c(S(=O)(=O)Nc2cccc3cccnc23)c(C(C)C)c1 | -0.6% | -3.1
CC[C@H](C)[C@@H](NC(=O)O[C@@H]1Cc2cc(Br)ccc2O[C@H]1c1cccc(OC)c1)C(=O)OC | -18.1% | -1.7
CC(C)C1=CC2=CC[C@@H]3[C@](C)(CCC[C@@]3(C)C(=O)O)[C@H]2CC1 | -4.1% | 1.5
C[N+](C)(C)CCCCCNCC12CC3CC(CC(C3)C1)C2 | 14.4% | ?
Cc1ccccc1-c1cncnc1NCc1cccnc1 | 79.4µM* | -2.6
C[C@H]1C[C@]2(O[C@@H]2C)C(=O)O[C@@H]2CCN(C)C/C=C(/COC(=O)[C@]1(C)O)C2=O | 15.1% | ?
COc1ccc2c(c1)C(c1ccc3c(c1)OCO3)CC(=O)O2 (stereo not drawn) | -25.4% | 0.3[94.6 µM]
Cc1ccsc1CNc1ncnc2ccc(-c3c(C)noc3C)cc12 | -12.5% | 10.0
COc1ccc2c(c1)O[C@H](c1ccc3c(c1)OCO3)[C@@H](OC(=O)NS(=O)(=O)c1ccc(F)cc1)C2=O | 10.9% | -0.6
CC(C)CN1CC2(CCN(S(=O)(=O)c3ccccc3)CC2)C1 | 6.0% | -2.9
c1nc(NC2CCNCC2)c2cc(-c3ccc4c(c3)OCO4)ccc2n1 | 6.7% | 1.8
Cc1cc(I)ccc1Nc1c(C(=O)NOCC2CC2)cc(F)c(F)c1F | 14.2% | -0.2
Cc1cnc(CNc2ncncc2-c2ccc3c(c2)OCO3)cn1 | 1.6% | 0.5
C=CC(=O)c1ccc2ccccc2c1 | 31.6µM* | -4.4
CC1(OC(=O)c2ccc(Cl)nc2)C(=O)Cc2cc(-c3ccsc3)ncc2C1=O (stereo not drawn) | 14.3% | 0.0[11.7 µM]
Cc1ncc(CO)c(CN)c1O | -19.2% | -6.1
CC1(OC(=O)C2CCCC2)C(=O)C=C2C=C(c3ccsc3)N(c3cccc(C#N)c3)C=C2C1=O (stereo not drawn) | -17.6% | 14.1[11.7 µM]
COCC(=O)Nc1cc(Sc2ccccc2)ccc1N=C(NC(=O)OC)NC(=O)OC | 8.3% | 4.4
COC(=O)C1=C(C)N(Cc2ccccc2)C(=NCc2ccco2)N[C@H]1c1ccc(Br)cc1 | -6.9% | -2.6
CO[C@H]1COC(=O)C/C=C\[C@H](C)[C@@H](OC)COC(=O)[C@@H](C)COC(=O)C/C=C\[C@@H]1C | 30.9%[activator] | 1.4[11.7 µM]
COc1ccc(-c2oc3cc(OC)ccc3c(=O)c2O)cc1 | -3.1% | 0.8
O=c1cnc2cnc(Oc3cccc(Cl)c3)nc2n1CCc1ccccc1 | 7.1% | -0.5
C[C@@H]1[C@H]2CC[C@@H]3[C@@H]4CC=C5C[C@@H](N(C)C)CC[C@]5(C)[C@@H]4CC[C@@]32CN1C | 23.2% | 0.3[24.8 µM]
Cc1noc(C)c1C(=O)N1CCC2(CC1)CN(c1cccc(-c3ccccc3)c1)C2 | -3.7% | -4.8
COc1cccc(-c2nccc(NC3CCNCC3)n2)c1 | 1.8% | -1.7
Cc1cn(C2CC(N=[N+]=[N-])C(CO)O2)c(=O)[nH]c1=O (stereo not drawn) | 17.8% | 6.2
CS(=O)(=O)Nc1cccc(-c2nc(NCc3cccs3)c3ccccc3n2)c1 | ? | 1.0
COCC(=O)N1CCC2(CC1)CCN(c1ccccn1)CC2 | 3.1% | 3.1
CC(C)=CCC/C(C)=C/CO/N=C1/C[C@@H](O)[C@@H](O)[C@@H]2[C@@H]3C(=O)N(C(C)(C)C)C(=O)[C@H]3CC[C@@H]12 | 9.4% | -0.4[11.7 µM]
O=C1N[C@@H]2[C@H](CCCCC(=O)Oc3ccc([N+](=O)[O-])cc3)SC[C@H]2N1 | -4.9% | 3.7
CCCNC(=O)OC[C@H]1O[C@@H](CCO/N=C2/[C@H]3O[C@@H]3[C@@H](O)[C@H]3[C@H]2CCn2c(=O)n(-c4ccccc4)c(=O)n23)C=C[C@@H]1Oc1ccc(OC)cc1 | 12.5% | 0.2[11.7 µM]
COc1cc(OC)cc(-c2nnc3n2N=C(c2ccccc2OC)CS3)c1 | -6.5% | 6.7
COc1c(CO)cc(CO)cc(CO)c1=O | -9.0% | -0.9
NC(N)=NCCC[C@H](N)C(=O)N1CCC[C@H]1C(=O)N1CCC[C@H]1C(=O)NCC(=O)N[C@@H](Cc1ccccc1)C(=O)N[C@@H](CO)C(=O)N1CCC[C@H]1C(=O)N[C@@H](Cc1ccccc1)C(=O)O | -1.0% | -7.2
N[C@@H](Cc1cc(-c2ccc(Cl)cc2Cl)cc(CP(=O)(O)O)c1O)C(=O)O | ? | 93.4[activator]
O=c1c(-c2ccc(F)cc2)nc2cnc(Oc3ccccc3)nc2n1C1CC1 | 10.4% | 3.8
COC(=O)NC(/C(C(=O)OC)=C(\C)NCc1ccccc1)c1cccs1 (stereo not drawn) | -4.4% | 2.9[11.7 µM]
COc1cccc(Nc2ncc3nc(-c4ccc(F)cc4)c(=O)n(CCC#N)c3n2)c1 | 2.5% | ?
Cc1cccc(CNc2ccnc(-c3ccccc3Cl)n2)c1 | -12.2% | 1.6
CCC1OC(=O)C(C)[C@@H](O[C@H]2C[C@@](C)(OC)C(O)C(C)O2)C(C)[C@@H](O[C@@H]2OC(C)CC(N(C)C)C2O)[C@@](C)(O)CC(C)C2NC(COCCOC)O[C@H](C2C)[C@@]1(C)O (stereo partly drawn) | 6.2% | -5.3
CO[C@H]1COC(=O)C/C=C\[C@H](C)[C@H](OC)COC(=O)[C@@H](C)COC(=O)C/C=C\[C@@H]1C | -10.8%&-7.9% | 0.0&1.1[11.7 µM]
CC(C)[C@H]1COC(c2cc(Cl)cc(Cl)c2)=N1 | 11.7% | 1.5[94.6 µM]

3 entries already listed, sorted by the value under Menin MLL FP FL, lowest first:
smiles	Menin MLL FP FL
COc1cccc(-c2nccc(NC3CCNCC3)n2)c1	-1.7
COc1c(CO)cc(CO)cc(CO)c1=O	-0.9
CS(=O)(=O)Nc1cccc(-c2nc(NCc3cccs3)c3ccccc3n2)c1	1.0

Three compounds out of the list, sorted by molecular weight, largest number first:
Compound | Sfp PPTase inh | Menin MLL FP FL
N[C@@H](Cc1cc(-c2ccc(Cl)cc2Cl)cc(CP(=O)(O)O)c1O)C(=O)O | ? | 93.4[activator]
Cc1cnc(CNc2ncncc2-c2ccc3c(c2)OCO3)cn1 | 1.6% | 0.5
COc1ccc(-c2oc3cc(OC)ccc3c(=O)c2O)cc1 | -3.1% | 0.8

Reprinted at random: 5 entries already listed.
Compound | Sfp PPTase inh | Menin MLL FP FL
COCC(=O)N1CCC2(CC1)CCN(c1ccccn1)CC2 | 3.1% | 3.1
Cc1ccsc1CNc1ncnc2ccc(-c3c(C)noc3C)cc12 | -12.5% | 10.0
CN(C)c1ccc(-c2nc(Nc3ccncc3)c3ccccc3n2)cc1 | ? | 16.0
C=CC(=O)c1ccc2ccccc2c1 | 31.6µM* | -4.4
Cc1cnc(CNc2ncncc2-c2ccc3c(c2)OCO3)cn1 | 1.6% | 0.5

(continued)
Compound | Sfp PPTase inh | Menin MLL FP FL
Cc1nc(NCc2ccccc2)c2nc(-c3ccccc3)n(CC(C)(C)CN(C)C)c2n1 | 1.9% | 3.1
O=C(N/N=C1/C[C@@H](O)[C@@H](O)[C@@H]2[C@@H]3C(=O)N(C4CCCCC4)C(=O)[C@H]3CC[C@H]12)OCc1ccccc1 | 9.4% | 2.1[11.7 µM]
CC(=O)N1CCC2(CCCN(c3ccc(-c4ccccc4)cc3)C2)CC1 | ? | ?
O=C1CCCC(C(C(=O)OCc2ccccc2)C(=O)OCc2ccccc2)C1 (stereo not drawn) | -5.1% | 0.9
COc1ccc2c(c1)C(=O)[C@H](OC(=O)NCCc1ccc(OC)c(OC)c1)[C@@H](c1ccc(OC)c(Br)c1)O2 | -8.0% | -0.7
COc1ccc2c(=O)c(C)c(-c3ccccc3)oc2c1CN(C)C | ? | -3.8
Cc1noc(C)c1C(=O)N1CCC2(CCCN(Cc3ccc(C#N)cc3)C2)CC1 | -4.0% | 0.5
NC(=O)c1cc[n+](CC2=C(C(=O)[O-])N3C(=O)[C@@H](NC(=O)Cc4cccs4)[C@@H]3SC2)cc1 | -10.8% | 6.1[24.8 µM]
O=c1c(CCc2ccccc2)nc2cncnc2n1Cc1ccccc1Cl | 10.7% | ?
CCN1C(C)=C(C(=O)OC)C(c2ccccc2)N2C(=O)[C@](O)(C(=O)OC)C(c3ccccc3)C(C(=O)c3ccccc3)=C12 (stereo partly drawn) | -7.5% | -2.7[11.7 µM]
C[C@H](NC(c1cccc2nc(O)c(O)nc12)P(=O)(O)O)c1ccc(Br)cc1 (stereo partly drawn) | -5.3% | 0.8
CC(=O)C1=C(O)C=C2Oc3c(C(C)=O)c(O)c(C)c(O)c3[C@]2(C)C1=O | 15.1% | ?
O=S(=O)(c1cccc2c(Cl)cccc12)N1CCCNCC1 | -6.8%&-0.5%&-0.1% | ?
CC(C)C[C@H](NC(=O)[C@H]1O[C@@H]1C(=O)O)C(=O)NCCCCN=C(N)N | 9.7% | -0.3
CC(C)NC(=O)N1CC[C@@]2(CCCN(C(=O)c3cc(C(F)(F)F)cc(C(F)(F)F)c3)C2)C1 | 16.6% | -8.3
CN(C)c1ncc2nc(-c3ccc(F)cc3)c(=O)n(CCc3ccccc3)c2n1 | -2.7% | -2.4
CCC/C=C(\CCC)C(NC(=O)OCC(C)C)c1ccccc1 (stereo not drawn) | 30.5% | 2.5
CCN1C(=O)[C@H]2[C@H]3[C@H](O)[C@H](O)C/C(=N/OC)[C@@H]3CC[C@@H]2C1=O | -4.1% | 0.0[11.7 µM]
CCNc1ncc2nc(-c3ccc(Cl)cc3)c(=O)n(Cc3cccc(OC)c3)c2n1 | -1.5% | ?
COc1ccc2c3c([nH]c2c1)[C@@H]1C[C@@H]2[C@@H](C[C@H](O)[C@H](OC)[C@H]2C(=O)O)CN1CC3 | 9.2% | -1.4[24.8 µM]
O=c1cc(-c2ccccc2O)oc2c(O)c(O)ccc12 | 3.98µM* | ?
O=C(NCCC[N+]1=CC=N[C@H]1c1ccccc1)N1CCCc2nc(-c3ccc(Br)cc3)ccc21 | 9.6% | -15.4[11.7 µM]
COc1ccc2cc1Oc1cc3c(cc1OC)CC[N+](C)(C)C3Cc1ccc(cc1)Oc1c(OC)c(OC)cc3c1C(C2)[N+](C)(C)CC3 (stereo not drawn) | -4.7% | 7.8

Source: PubChem

Some of the compounds tested; rates above refer to the full screens.
